StopGo RLuc – Primary qHTS Assay for Foot and Mouth Disease Virus Antivirals against NCGC Sytravon and CBC Compound Libraries: Renilla Luciferase Signal. HEK cells with a luciferase reporter of 2A StopGo recoding. 0.32% of 120,000 active. Potency, µM (titrated, usually from 57.5 µM), for inactives: at the top dose signal change, negative = less light; active means well fitted falling curve with a large enough effect; inconclusive means small, poorly fitted or top-dose-only effect; inactive means no such curve, though single readings can be large or run the other way; note: nearly all actives have a fitted effect of over 55% in size; overnight with compound
StopGo FLuc – Primary qHTS Assay for Foot and Mouth Disease Virus Antivirals against NCGC Sytravon and CBC Compound Libraries: Firefly Luciferase Signal; HEK cells with a luciferase reporter of 2A StopGo recoding; Potency, µM (doses to about 57.5 µM), inactives show top-dose signal change, negative = less light; 0.23% of 120,000 active; active = well fitted falling curve with a large enough effect; inconclusive = small, poorly fitted or top-dose-only effect; inactive = no such curve, though single readings can be large or run the other way; note: nearly all actives have a fitted effect of over 60% in size; overnight with compound
The depositor's hits bear a star; u = inconclusive; [ ] = remark or other dose. % is set by controls: 0 for no effect and ±100 for the full control effect; potency is the fitted concentration of half-maximal effect.

Order of values – StopGo RLuc	StopGo FLuc
Cc1cn(C)c(CC(=O)NCc2ccc(F)cc2)c1C(=O)O
→ 10%	16%
Cc1ccc(-c2cc(C(=O)NC(C)C)c3ccccc3n2)cc1C
→ 11%	96%[activator]
O=C(c1cc(NC2CCCCCC2)nc2ccccc12)N1CCOCC1
→ 136%[activator]	21%
COc1cc(OC)cc(C(=O)Oc2cccc3ccc(C)nc23)c1
→ -11%	15%
CC(On1nnc2ccccc21)C(=O)Nc1ccc(Cl)cc1Cl (stereo not given)
→ 34%[activator]	133%[activator]
CC(C)c1ccccc1NC(=O)CCc1ncc(-c2ccccc2)o1
→ -6%	2%
CCC(/C=N/NC(N)=O)=C\c1ccccc1
→ 9%	113%[activator]
CNS(=O)(=O)c1cccc(C(=O)NCC2(c3ccccc3)CCC2)c1
→ 36%[activator]	87%[activator]
Cc1cc(OCCn2c(CNC(=O)c3ccco3)nc3ccccc32)ccc1Cl
→ 23%	8%
Cc1nn(C(=O)c2cccc(F)c2)c(C)c1S(=O)(=O)N1CCCCCC1
→ 5%	4%
O=C(Nc1ccc2oc(=O)ccc2c1)c1cc(Cl)ccc1Cl
→ 14%	36%[activator]
O=[N+]([O-])c1cc(S(=O)(=O)Nc2ccccc2)ccc1N/N=C1/CC2CC=CC12 (stereo not given)
→ 22%	-23%
O=C(/C=C/c1csc(-c2ccc(F)cc2)n1)N1CCN(c2cccc(C(F)(F)F)c2)CC1
→ 0%	25%
CCOc1ccc(NC(=O)CC2C(=O)N(c3ccc(C)cc3)C(=O)N2Cc2ccc(OC)cc2)cc1 (stereo not given)
→ 47%[activator]	-7%
COc1ccccc1N(C)S(=O)(=O)c1ccc(C(=O)Nc2ccc(C(C)C)cc2)cc1
→ u	u

Additional structures follow:
Order of values – StopGo RLuc	StopGo FLuc
CCCOc1ccc(CNC(=O)c2oc3ccc4c(c3c2C)C(=O)CC(C)(CC)O4)cc1 (stereo not given)
→ 54%[activator]	81%[activator]
CC(CC(=O)Nc1cnc2ccccc2c1)c1ccccc1 (stereo not given)
→ 35%[activator]	196%[activator]
CC(O)CNc1nc2c(c(=O)n(C)c(=O)n2C)n1Cc1ccc(F)cc1 (stereo not given)
→ u	u
CCC(NC(=O)CC1C=CCC1)C12CC3CC(CC(C3)C1)C2 (stereo not given)
→ 0%[1.06 µM]	0%
CCOc1cc(C(=O)Nc2cccc(Cl)c2N2CCCC2)cc(OCC)c1OCC
→ 15%	23%
COc1ccc(Nc2cc(C)c3cc(NC(=O)Cc4ccc(Cl)cc4)ccc3n2)cc1
→ 4%	-6%
COc1ccc(-c2nc3cc(C(C)C)ccc3o2)cc1NC(=O)COc1ccc([N+](=O)[O-])cc1
→ 4%	107%[activator]
O=C(O)/C=C\C(=O)NC(Cc1ccccc1)C(=O)O (stereo not given)
→ 18%	23%
CCNC(=O)C1Cc2cc(S(=O)(=O)N(CC)CC)ccc2N1C(C)=O (stereo not given)
→ 1%	4%
Cc1ccc(CS(=O)(=O)N2CCC(C(=O)N3CCN(c4cc(Cl)ccc4C)CC3)CC2)cc1
→ 8%	11%
Cc1oc(-c2nc(C#N)c(NC(C)c3ccccc3)o2)cc1S(=O)(=O)N1CCCC1 (stereo not given)
→ 20%	1%
Cc1cccc(NC(=O)CCc2c[nH]c3ccccc23)c1
→ 3%	87%[activator]
COc1cc(/C=N/O)cc(Cl)c1OC(C)=O
→ 29%	18%
Cc1ccc(C)c(Cn2c(SCC(=O)N(C)Cc3ccccc3)nc3ccccc32)c1
→ 41%[activator]	-10%
Cc1c(-c2ccccc2)c(=O)oc2cc(OCC(=O)OC(C)(C)C)ccc12
→ u	u

The list goes on.
Order of values – StopGo RLuc	StopGo FLuc
CC1(CN2CCC(n3c(=O)[nH]c4ccccc43)CC2)OCc2ccccc2-n2cccc21 (stereo not given)
→ -25%	-10%[11.5 µM]
O=C(CCn1c(=O)c2ccccc2n(CC(=O)Nc2ccc(F)cc2)c1=O)NCCc1ccccc1
→ 21%	19%
CCN(CCCNC(=O)c1ccc(Sc2ccc(Cl)cc2)c(NC(C)=O)c1)c1ccccc1
→ 7%	-16%
COc1cc(CCC(=O)NCc2ccncc2)cc(OC)c1OC
→ -8%	-4%
CCC(=O)Oc1cccc(C(=O)Nc2ccc(-c3nc4ccccc4o3)cc2)c1
→ 5%	232%[activator]
CC(C)NC(=O)c1ccc(NC(=O)C(F)(F)C2(F)OC(F)(F)C(F)(F)C2(F)F)cc1 (stereo not given)
→ -8%	-12%
O=C(c1ccc2c(c1)N(Cc1ccccc1)C(=O)c1ccccc1S2=O)N1CCC2(CC1)OCCO2 (stereo not given)
→ 47%[activator]	-6%
O=C(Nc1ccc2c(c1)OCO2)c1cccn(Cc2cccc(F)c2)c1=O
→ -4%	0%
O=C(c1cccc(S(=O)(=O)NC2CC2)c1)N1CCN(c2ccccc2F)CC1
→ 0%	13%
O=C(Nc1nonc1-c1ccc(Cl)cc1)c1ccc(Cl)cc1
→ 1%	-6%
Cc1cc(SCC(=O)NC2CC2)nc2ccccc12
→ 17%	46%[activator]
COCCCNC(=O)c1ccc(NC(=O)N2CCCCc3ccccc32)cc1
→ -6%	-3%
COc1ccc(CNC(=O)C2CCN(S(=O)(=O)c3ccc4c(ccn4C)c3)CC2)cc1
→ 47%[activator]	-3%
C=C(C)COc1ccc2c(C)c(CCC(=O)Nc3nc4ccccc4[nH]3)c(=O)oc2c1
→ -15%	-9%
CC(C)OCCCn1c(SCc2ccccc2Cl)nc2c(sc3ccccc32)c1=O
→ 27%	17%

(cont.)
Order of values – StopGo RLuc	StopGo FLuc
CCN(CC)CCCNC(=O)CCCn1ncn2c(cc3occc32)c1=O
→ -23%	8%
CN(CC(=O)Nc1cccc(C#N)c1)S(=O)(=O)c1cc2c(cc1Cl)NC(=O)CO2
→ -10%	-10%
CSc1ccc(CCNC(=O)CN2C(=O)COc3ccc(S(=O)(=O)N4CCCC4)cc32)cc1
→ 13%	-3%
O=C1COc2cc(S(=O)(=O)CCC(=O)NC3CCCCC3)c(Cl)cc2N1
→ -8%	-10%
C=CCN(C)CC#Cc1ccc(OC)cc1
→ -10%	10%
O=C(NC1CCCCCCC1)c1n[nH]c(=O)c2ccccc12
→ 0%	111%[activator]
CCN1C(=O)NC(c2ccc(F)c(Br)c2)C(C(=O)Nc2cc(C)on2)=C1C (stereo not given)
→ 15%	-5%
Cc1cccc2c1N(C(=O)c1cccc3ncccc13)CCC2
→ -16%	-23%
Cc1ccc(NC(=O)C2CCN(C(=O)c3sc4nc[nH]c(=O)c4c3C)CC2)cc1F
→ -4%	0%
O=C1NC2(CCCC2)C(=O)N1Cc1ncc(-c2cccc(Cl)c2)o1
→ -14%	36%[activator]
CCN(C(=O)c1ccc(C(=O)OC)s1)C1CCCC1
→ 20%	20%
O=C(c1cc2cc3ccc(Cl)cc3nc2o1)N1CCN(c2cccc(Cl)c2)CC1
→ -9%	0%
O=C(CCc1cn(Cc2ccccc2F)c2ccccc12)NCc1ccc(Cl)cc1
→ 10%	-28%
COc1cc2c(cc1NC(=O)COc1ccc(Cl)cc1Br)oc1ccccc12
→ -4%	9%
Cc1ccc(S(=O)(=O)N(CC(=O)Nc2ccc(Cl)cc2Cl)c2ccccc2C)cc1
→ 109%[activator]	-16%

(continued)
Order of values – StopGo RLuc	StopGo FLuc
Cc1nc(-c2ccc(S(=O)(=O)Nc3ccccc3F)cc2)co1
→ 22%	7%
Cn1c(=O)c2c(nc(SCCN3CCOCC3)n2Cc2ccc(Cl)cc2)n(C)c1=O
→ -3%	1%
Cc1ccc(Nc2nc(CSc3nnnn3C3CC3)cs2)cc1C
→ u	-16%
Cc1ccc(Sc2c(C)nn(C(=O)C3CCCN3S(=O)(=O)c3ccc(F)cc3)c2C)cc1 (stereo not given)
→ 0%	31%[activator]
CC1CCN(C(=O)C2CCN(C(=O)c3ccc4ccccc4n3)CC2)CC1
→ -13%	-4%
O=C(Cn1ccc2cc(Br)ccc21)Nc1nccs1
→ 14%	21%
Cc1nnc2sc(-c3ccc(CNC(=O)c4ccccc4Cl)cc3)nn12
→ -1%	1%
Cc1ccc(-n2c(SCC(=O)Nc3cccc(C)c3)nc3c(oc4ccccc43)c2=O)cc1
→ -5%	-12%
CCc1ccccc1-n1ncc2c1NC(=O)CC21C(=O)N(CC(N)=O)c2ccccc21 (stereo not given)
→ -2%	4%
CC(C)n1nc(C(=O)Nc2nc(-c3ccc(Cl)s3)cs2)c2ccccc2c1=O
→ -12%	32%[activator]
COc1cc(NS(=O)(=O)c2cc(Br)cc3c2N(C(C)=O)C(C)C3)cc(OC)c1 (stereo not given)
→ -26%	-43%
COc1ccc(/C=C(/C#N)c2ccc(C(F)(F)F)cn2)cc1O
→ -4%	15%
CCN1CCN(Cc2c(O)ccc3cc(-c4ccc(OC)cc4)c(=O)oc23)CC1
→ 51%[activator]	52%[activator]
Cc1ccc(C2CCCN2Cc2nc(-c3ccco3)no2)cc1 (stereo not given)
→ 51%[activator]	0%
COC(=O)c1oc(CN2CCCC2c2ccsc2)cc1C (stereo not given)
→ 5%	12%

Continued:
Order of values – StopGo RLuc	StopGo FLuc
COc1ccc(Br)cc1C12CC3CC(CC(C3)C1)C2
→ 10%	15%
CC/C(=N/N=C(/CC)c1ccccc1)c1ccccc1
→ 24%	0%
Cc1c2cnn(CC(=O)O)c(=O)c2c(C)n1Cc1cccc(Cl)c1
→ 66%[activator]	7%
CCCN(Cc1cc2ccc(C)cc2[nH]c1=O)S(=O)(=O)c1ccc(Cl)cc1
→ 3%	-14%
Cn1c(=O)[nH]c(=O)c2c1nc(N1CCCCCC1)n2CCc1ccccc1
→ -7%	-8%
Cc1ccc(-c2cc(C(F)(F)C(F)F)[nH]n2)cc1
→ u	4%
CCOC(=O)c1cccc(NC(=O)C(CC(C)C)N2Cc3ccccc3C2=O)c1 (stereo not given)
→ 212%[activator]	7%
COCCNc1oc(COc2ccc(OC)cc2)nc1C#N
→ -10%	9%
Cc1nc2ccccc2nc1SC(C)C(=O)N1CCOCC1 (stereo not given)
→ -10%	8%
Cc1ccccc1NC(=O)c1sc2c(c1C)C(c1ccncc1)CC(=O)N2 (stereo not given)
→ -21%	10%
CC(OC(=O)c1n[nH]c(=O)c2ccccc12)C(=O)c1ccc2c(c1)CCC2 (stereo not given)
→ -3%	24%
CCOCCCNC(=O)c1ccccc1C
→ -1%	41%[activator]
CC1CCC(NC(=O)C23CC4CC(CC(Cl)(C4)C2)C3)CC1 (stereo not given)
→ u	0%
Cc1c(Cl)cccc1NC(=O)CCNC(=O)c1cccs1
→ -16%	-9%
Cc1ccc(CNC(=O)CN2C(=O)CN(C(=O)NCc3ccc(F)cc3)c3ccccc32)cc1
→ 0%	6%

5 entries picked at random from those above, as already listed:
Order of values – StopGo RLuc	StopGo FLuc
CC(OC(=O)c1n[nH]c(=O)c2ccccc12)C(=O)c1ccc2c(c1)CCC2 (stereo not given)
→ -3%	24%
COc1ccc(Br)cc1C12CC3CC(CC(C3)C1)C2
→ 10%	15%
Cn1c(=O)[nH]c(=O)c2c1nc(N1CCCCCC1)n2CCc1ccccc1
→ -7%	-8%
CCOCCCNC(=O)c1ccccc1C
→ -1%	41%[activator]
CC1CCC(NC(=O)C23CC4CC(CC(Cl)(C4)C2)C3)CC1 (stereo not given)
→ u	0%

Next section:
Order of values – StopGo RLuc	StopGo FLuc
O=C(NCc1ccc(F)cc1)c1cc2c(=O)n3ccccc3nc2s1
→ 0%	36%[activator]
CC(=O)c1cccc(NC(=O)c2cc(-c3ccc4c(c3)OCCO4)on2)c1
→ -21%	115%[activator]
CCc1ccc(/C=C/C(=O)c2ccc(O)cc2)cc1
→ 8%	77%[activator]
CCS(=O)(=O)N1CC(=O)N(c2cc(C)cc(C)c2)C(C)(C(=O)NC2CCCCC2)C1 (stereo not given)
→ -9%	-10%
CCCCn1c(=O)[nH]c(=O)c2c1nc(CCC(N)=O)n2CC(C)C
→ -18%	-13%
CC(C)(C)C1CCc2onc(C(=O)N3CCCC3)c2C1 (stereo not given)
→ -5%	1%
CCCCN(C)Cc1cc(=O)oc2cc(-c3ccccc3)c(O)cc12
→ 30%[activator]	159%[activator]
Brc1ccc(-c2nn3c(-c4ccccn4)nnc3s2)cc1
→ 11%	0%
N#CCCCCS(=O)(=O)c1ccc2c(c1)OCCO2
→ -1%	-6%
Cc1cc(C)cc(NC(=O)CSc2oc(-c3ccccc3)nc2S(=O)(=O)c2ccccc2)c1
→ -9%	-8%
CN(Cc1ccccc1)C(=O)OCc1cn(Cc2ccc(F)c(F)c2)nn1
→ 41%[activator]	-4%
C=CCNC(=O)CSc1ccc2c(c1)OCCCO2
→ 2%	52%[activator]
CCc1ccc(-c2[nH]nc3nc(-c4ccc(OC)cc4)cc(C(=O)NCCc4ccc(OC)c(OC)c4)c23)cc1
→ 7%	-15%
COc1ccc(OC)c2[nH]c(C(=O)NCC(=O)Nc3ccc4c(c3)OCO4)cc12
→ -9%	8%
CCOc1cccc(CNC2CC2)c1
→ -1%	4%
CCc1ccc(-n2c(=O)c3c4c(sc3n(CC(=O)NCCCOC)c2=O)CCC4)cc1
→ -12%	-16%

Record cards, as listed above.
CC(=O)c1cccc(NC(=O)c2cc(-c3ccc4c(c3)OCCO4)on2)c1 is listed as StopGo RLuc = -21%; StopGo FLuc = 115%[activator]
CC(C)(C)C1CCc2onc(C(=O)N3CCCC3)c2C1 (stereo not given) is listed as StopGo RLuc = -5%; StopGo FLuc = 1%

Screening results from PubChem BioAssay.
